# Bioassay records from PubChem.
# ugtP null kill: growth inhibition of S. aureus ugtP deletion strain. S. aureus RN4220 ugtP deletion, OD600 growth, 16 h; some inactives read as strong as hits. growth inhibition, % (no concentration beside the values). 0.54% of 330,000 active;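 active = z-score under -3 and OD600 up to 0.15 on both plates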;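 also: plate controls were untreated wells for no effect and antibiotic for full effect; wells of about 80 µL received 100 nL stock; the first replicate is given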
# BJeLR lethal: BJeLR cell viability loss. BJeLR (HRASV12) viability, CellTiter-Glo ATP luminescence, 48 h; reference of the scale not given here. inhibition, % (concentration not given with the values). 0.17% of 300,000 active. AID 1554;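 active = replicate mean above 50%; inconclusive = above 50% but judged a plate artefact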;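 also: 50 nL library stock added to about 25 µL; numbers are from one replicate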
# Autofluor counter: compound fluorescence in toxin protease inhibitor counterscreen; compound autofluorescence counterscreen, microsphere flow cytometry; stronger effect = higher value; 3.1% of 360,000 active; fluorescence intensity (test concentration not listed);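 active = at least 3 SD above the mean of all compounds, about 16000 in these data; inconclusive = too few beads counted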;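 also: 100 nL of 1 mM stock went into each well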
# RN4220 kill: S. aureus RN4220 growth inhibition; 0.33% of 330,000 active; inhibition, % (test concentration not listed); OD600, 16 h;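 active = z-score of -3 or lower and OD600 up to 0.18 on both plates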;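 also: plate controls were untreated cells for no effect and reference antibiotic for full effect; stock transfer was 100 nL into about 80 µL; one replicate is shown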
# Mtb hypoxia rep: inhibitors of hypoxia-regulated fluorescent reporter in Mycobacterium tuberculosis; M. tuberculosis hypoxia-regulated fluorescent reporter, fluorescence; fluorescence inhibition, % (no concentration beside the values); 0.1% of 300,000 active; AID 1159583;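 active = 35 to 45% if threefold the growth effect, above 45% if 1.5-fold the growth effect; inactive = the rest, general growth blockers included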;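 also: wells of about 50 µL received 100 nL stock; 0% = vehicle wells and 100% = reference inhibitor wells; whole bacteria with a GFP reporter of the hypoxia response; strong numbers were not always called active; many hits fall short of the cut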
# PrP 5UTR inh: inhibition of PrP 5' UTR reporter expression. cell-based PrP 5' UTR mRNA reporter, plate reader. inhibition, % (concentration not given with the values). 0.35% of 340,000 active;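 active = every replicate at 50% or more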;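 also: 0 = median of the neutral control wells; tested in H4 reporter cells; numbers are from one replicate; inactives centre near -14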
# Mtb hypoxia rep growth: also measured in Mtb hypoxia rep; calls as there; growth inhibition, %; measured here: M. tuberculosis growth (absorbance);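 0% = vehicle and 100% = reference antibiotic; read after six days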
# Starred values were filed as active, the others as inactive; ? = inconclusive; nt = no result given. Not a hit list; 4% or so of the library scored in one or more.
SMILES,ugtP null kill,BJeLR lethal,Autofluor counter,RN4220 kill,Mtb hypoxia rep,Mtb hypoxia rep growth,PrP 5UTR inh
COc1cc2c(cc1OC)CN(C(=S)Nc1ccc(C)cc1C)CC2,-1,0,2414,4.7,14,6,-8
O=C(/C=C/c1cccc(Br)c1)NC1CCN(Cc2ccccc2)CC1,6,1,4093,-1.4,4,0,6
O=C(COC(=O)CSc1cccc2cccc(Cl)c12)Nc1ncc(C(F)(F)F)cc1Cl,3,-1,9647,7.2,-6,-6,-16
Cn1ncc(Br)c1C(=O)Nc1cccc(C(F)(F)F)c1,-2,4,5306,5.9,-3,3,-14
CCCc1nnc(NC(=O)c2oc3ccccc3c2COCC)s1,1,nt,5639,5.0,-2,6,-4
CC(=O)c1ccc(S(=O)(=O)N(C)CC(=O)Nc2cc(C)on2)cc1,-1,nt,5992,2.1,-5,-1,-6
CCN(CC)c1cc(C)c2ccccc2n1,5,-2,4647,5.2,4,4,-31
CC(=O)c1ccc(N2CCN(CC(=O)Nc3ccccc3N3CCOCC3)CC2)cc1,2,1,5096,-1.0,9,1,-8
Cc1cc2c(C)cc(=O)oc2c2c1NCCC2,0,-8,25354*,3.9,3,5,-8
COc1ccccc1NS(=O)(=O)c1cc(N/C(=N\S(=O)(=O)c2ccccc2)c2ccc(F)cc2)ccc1Cl,nt,-1,2099,nt,nt,nt,-27
CCOc1ccc(Oc2ccc(NS(=O)(=O)c3cc(C(=O)O)ccc3Cl)cc2)cc1,1,nt,?,0.1,0,13,-13
O=C(O)CN1C(=O)/C(=C\c2cc([N+](=O)[O-])ccc2OCc2ccccc2Cl)SC1=S,2,8,3527,16,2,6,-20
Cc1nn(CCC(=O)N2CCN(S(=O)(=O)c3ccccc3)CC2)c(C)c1C,5,-2,5871,1.3,-18,-5,-16
CC(=O)C[C@H](O)CC(=O)[C@H]1OC(=O)[C@@H](C)CCCCc2ccccc21,2,nt,3669,19,-8,-5,-42
Cc1c(/C=C2\SC(=Nc3cccc(C(=O)O)c3)NC2=O)c2ccccc2n1C,-1,-1,3664,5.6,10,2,-28
COCCCNc1nc(N)c([N+](=O)[O-])c(NCc2ccccc2)n1,-3,-7,3567,7.8,1,5,-7
CCO[C@H]1OC(C(=O)N2CCN(Cc3ccc4c(c3)OCO4)CC2)=C[C@@H](c2ccc3c(c2)OCO3)[C@@H]1CCCO,nt,8,3807,nt,nt,nt,9
COc1ccc(CNC(=O)CN(c2cc(C)cc(C)c2)S(=O)(=O)c2c(C)[nH]c(=O)[nH]c2=O)cc1,-1,11,5345,0.1,-3,0,-4
Cc1cccc(N(CC(=O)NC2CCCC2)C(=O)CS(=O)CC(=O)Nc2ccc3c(c2)OCO3)c1C (centres undefined),-1,-10,9037,3.4,-2,2,-26
CC1CC=CC2C1C(=O)N(Cc1ccccc1)C2c1ccc(F)c(C=Cc2ccccc2)c1 (centres undefined),2,nt,nt,-6.7,0,3,nt
O=C(c1ccc(F)cc1)N1CCN(Cc2ccccc2)CC1,11,1,4630,1.3,14,-9,-30
CCOc1ccc(N2C(=O)Nc3ccccc3C2(O)C(=O)NCc2ccc(OC)cc2)cc1 (centres undefined),4,-2,4509,6.5,9,11,-15
CCN(CC(=O)Nc1ccc(OC)cc1)CC(=O)Nc1ccc(Cl)cc1F,6,6,4663,10,-2,6,-45
CC1CN(C(C)CO)C(=O)c2cc(N(C)C)ccc2OC1CN(C)S(C)(=O)=O (centres undefined),-7,nt,nt,4.0,9,8,nt
O=C(O)C1=CC(c2ccc(F)cc2)CC(OCc2ccc(CO)cc2)O1 (centres undefined),1,nt,nt,1.7,-2,5,nt
# Following part:
SMILES,ugtP null kill,BJeLR lethal,Autofluor counter,RN4220 kill,Mtb hypoxia rep,Mtb hypoxia rep growth,PrP 5UTR inh
CCN(CCNC(=O)Cn1c(=O)sc2ccccc21)c1ccccc1,-2,-29,6011,-6.5,nt,nt,-25
COc1ccc(-c2oc(=O)n(C)c2-c2ccc(OC)cc2)cc1,1,7,2904,4.4,-2,-5,-15
CC1Cc2ccccc2N1C(=O)CSc1nnc2c(n1)[nH]c1ccccc12 (centres undefined),-11,13,2464,1.6,4,2,-5
COc1ccc(C(=O)NC(=S)NNC(=O)[C@H]2C[C@@H]2c2ccccc2)cc1OC,4,-9,nt,30,11,-5,-4
Cc1ccc(C(CNS(=O)(=O)c2ccc(Cl)cc2)N2CCN(C)CC2)cc1 (centres undefined),-2,2,6274,1.9,6,0,-11
Cc1ccccc1C(=O)O/N=C(\c1ccccc1)c1ccccn1,nt,5,2220,nt,nt,nt,5
Cc1cccc(CSCCNC(=O)c2ccc(CN3CCOCC3)cc2)c1,6,2,2335,1.6,12,-2,-11
COc1ccc(NC(=O)c2c(C)oc3c2CCCC3)cc1,3,-15,12637,7.3,16,9,-32
COc1ccc(-c2c(C)nc3c(-c4ccsc4)cnn3c2N)cc1,-1,7,3957,-0.7,3,1,-147
C=CCNC(=O)C=Cc1cccs1,6,nt,nt,4.4,nt,nt,nt
Cn1c(=O)c2c(-c3ccc(OC(F)F)cc3)cc(-c3ccccc3)nc2n(C)c1=O,-8,-4,nt,1.4,-3,-6,nt
COc1ccc2sc(-c3ccccc3OC)c(-c3ccc(OCCN4CCOCC4)cc3)c2c1,70,nt,2933,-1.3,4,8,-17
Cc1cc(CSc2ccccc2)ccc1NC(=O)COc1ccccc1C,17,0,2591,8.3,3,9,-23
CCCNC(=O)NC(=O)CSc1nc2ccccc2n1CC(C)C,-8,4,9128,8.5,6,3,0
C=CCSc1nc(N)c(NC(=O)c2ccco2)c(=O)[nH]1,18,nt,4326,11,-1,2,-10
O=C(NCc1ccc2c(c1)OCO2)C(=O)NCC(c1ccco1)N1CCN(c2ccccc2)CC1 (centres undefined),14,1,5959,-4.1,1,10,-13
CC1CC(=O)Nc2ccccc2N1C(=O)COc1ccc2ccccc2c1 (centres undefined),10,nt,2808,4.4,-1,-1,-8
CC(NC(=O)C(=O)NN=Cc1ccc([N+](=O)[O-])cc1)c1ccccc1 (centres undefined),6,nt,nt,2.5,6,2,nt
COC(=O)c1[nH]c2cc(OC)c(OC)cc2c1/C=N/Nc1ccccc1,nt,-2,4307,nt,nt,nt,-17
CCCCn1c(Nc2ccccc2)nc2ccccc21,-8,0,16689*,-2.6,-3,-2,-13
Cc1ccc(NS(=O)(=O)c2ccc(C(=O)N3CCN(c4ccccn4)CC3)cc2)cc1,0,1,2700,7.7,nt,nt,-39
COc1ccc(CCNC(=O)c2ccc(CN3CCOCC3)cc2)cc1,3,-9,9783,0.6,3,6,-49
O=[N+]([O-])c1ccc(S(=O)(=O)N2CCN=C2SCc2ccc(F)cc2)cc1,12,4,4688,2.3,0,1,-17
COc1ccc(OC)c(/C=N/NC(=O)c2cc3c(OC)cc(OC)cc3[nH]2)c1,nt,-4,5263,nt,nt,nt,-9
O=C(NN=C1CCCC1)c1ccccc1OCCOc1ccccc1,0,6,4258,4.1,12,12,-23

# Entries of single compounds from above. Order of values: ugtP null kill	BJeLR lethal	Autofluor counter	RN4220 kill	Mtb hypoxia rep	Mtb hypoxia rep growth	PrP 5UTR inh
# `CC(NC(=O)C(=O)NN=Cc1ccc([N+](=O)[O-])cc1)c1ccccc1` (centres undefined) as listed: 6	nt	nt	2.5	6	2	nt
# `CCCNC(=O)NC(=O)CSc1nc2ccccc2n1CC(C)C` as listed: -8	4	9128	8.5	6	3	0

# (list continues)
SMILES,ugtP null kill,BJeLR lethal,Autofluor counter,RN4220 kill,Mtb hypoxia rep,Mtb hypoxia rep growth,PrP 5UTR inh
COc1c2ccoc2c(OC[C@@H](OC(C)=O)C(C)(C)O)c2oc(=O)ccc12,-9,nt,3981,-4.5,6,7,4
O=C(NN=Cc1ccc(N2CCOCC2)s1)c1ccccc1Br,-6,nt,nt,2.6,6,-3,nt
COC(=O)C1=C(C)N(c2ccc(C)cc2)/C(=C/c2ccc(O)cc2)C1=O,55,3,2719,85*,-9,-4,-22
CC1(C)NC(C)(C)C(O)(C(N)=O)C1=O (centres undefined),-5,-5,23198*,3.0,0,7,-23
Cc1ccccc1NS(=O)(=O)c1nnc(NC(=O)C(C)C)s1,-6,-5,3761,24,14,-3,-15
Cc1ccc2nc(N3CCN(c4cccc(C)c4C)CC3)c3nnnn3c2c1,1,-3,4596,5.4,3,8,-1
Clc1ccc(-n2nnnc2Sc2ncnc3sccc23)cc1,51,31,2736,23,nt,nt,2
CCc1ccc(OCC(=O)Nc2cccc3nsnc23)cc1,21,-5,2438,14,11,6,-12
Cc1ccc(C)c(S(=O)(=O)N(C)c2ccc(OC(=O)C3CCN(C(=O)c4ccc(F)cc4)CC3)cc2)c1,2,nt,2729,-8.2,11,3,-30
CCN(CC)C(=O)C1CCN(S(=O)(=O)c2c(C)noc2/C=C/c2cccc(C)c2)CC1,1,3,6161,-1.2,nt,nt,-15
Cc1ccc(S(=O)(=O)NCCCN2CCOCC2)cc1C,5,5,3730,4.5,nt,nt,-7
CCOC(=O)c1nnn(CC(=O)Nc2cccc(Cl)c2C)c1C(=O)OCC,13,3,3439,5.5,nt,nt,9
CSc1ccccc1NC(=O)CCn1c(=O)sc2ccccc21,5,-4,4915,12,7,3,-8
CCOc1cc(C)c(S(=O)(=O)Nc2ccc3cn[nH]c3c2)cc1C,-5,3,9682,4.2,-1,3,-16
O=C(Nc1ccnn1C1CCN(Cc2ccc3nonc3c2)CC1)c1cccc(F)c1,10,-6,5926,4.1,11,13,-12
CCOC(=O)c1cc2c(cn1)[C@H](CCO)NC2,4,nt,3675,2.9,-2,4,-11
CCCN(CC(=O)Nc1ccccc1C)C(=O)C1CCN(S(=O)(=O)c2ccc3c(c2)OCCO3)CC1,5,nt,3057,3.6,11,5,-14
C1=C(CCNc2ncnc3c2cnn3-c2ccccc2)CCCC1,-7,-5,3601,-6.9,nt,nt,-56
COc1ccc(C=NNC(=O)C2C(=O)NCC2c2ccccc2)c(OC)c1 (centres undefined),11,nt,nt,5.5,18,7,nt
Cc1nnc(SCC(=O)Nc2ccccc2F)n(N)c1=O,-1,-2,6505,0.3,1,2,-9
CCc1nnc(NC(=O)CCC(=O)Nc2ccc(C)cc2)s1,-4,-14,5288,-1.6,-4,-2,-10
COc1ccc(CNC(=O)C2CCCN(S(=O)(=O)c3c(C)n[nH]c3C)C2)cc1 (centres undefined),5,-1,8469,2.9,-5,0,-23
CC(=O)Nc1c(C)nn(-c2ccc(C)c(C)c2)c1C,5,0,9497,3.5,6,4,3
COc1cccc(C(=O)N/N=C2/SCC(=O)N2CCc2ccc(OC)c(OC)c2)c1,nt,-2,9539,nt,nt,nt,-34
CCOC(=O)c1[nH]c(C)c(C(=O)NCCCN2CCOCC2)c1C,0,1,10335,-2.1,-2,7,-3
# More structures follow:
SMILES,ugtP null kill,BJeLR lethal,Autofluor counter,RN4220 kill,Mtb hypoxia rep,Mtb hypoxia rep growth,PrP 5UTR inh
Cc1cccc(OCCOC(=O)C2CCN(S(=O)(=O)c3ccc(C)c(C)c3)CC2)c1,13,2,4723,2.7,3,0,-11
CC(=O)Oc1ccc(-c2csnn2)cc1,-4,1,2783,2.1,nt,nt,-25
O=C(Nc1ccccc1)C1=C[C@@H](C2CCCCC2)C[C@@H](OCCCCO)O1,-3,-2,3851,11,-7,1,-5
CCOc1ccccc1NC(=S)C(=C([O-])c1ccc2c(c1)OCCO2)[n+]1ccc(CC)cc1,-6,nt,3333,-1.0,-7,7,nt
CCN(CC)CCN(C(=O)c1ccc2c(c1)OCCO2)c1nc2ccc(C)cc2s1,0,1,4060,-0.9,-10,-7,2
COCC1CCN(Cc2nc(-c3ccc(OC)cc3)no2)CC1,4,0,4091,1.2,-6,8,-32
COc1cc(-c2[nH]ncc2CN2CCc3sccc3C2)cc(OC)c1OC,12,6,4494,0.0,1,-5,-25
CCNC(=S)N/N=C/c1ccc(C(=O)O)cc1,nt,5,4490,nt,nt,nt,-16
CCOc1ccc(S(=O)(=O)Nc2cccc(-c3ccc(N4CCCCCC4)nn3)c2)cc1,15,1,5531,-1.5,10,5,-30
COc1ccc(N=Cc2c(O)n(CC3CCCO3)c(=O)[nH]c2=O)cc1 (centres undefined),-11,0,1985,-4.0,-3,-7,-32
Cc1ncoc1C(=O)Nc1nccs1,4,-4,9868,4.5,2,2,-19
O=C(N/N=C/c1ccc([N+](=O)[O-])o1)c1ccccc1-n1cccc1,nt,2,4565,nt,nt,nt,-10
